Anthrax LT inh – blocks cellular internalization of anthrax lethal toxin. AID 912. Cells, anthrax lethal toxin internalization, FRET ratio (460/530). Potency, µM (series often up to 40 µM), for inactives: at the top dose activity change, negative = inhibition, actives largely listed as inhibitors. hit rate 0.67% among 70,000; active = well fitted falling ratio curve with the 530 nm signal flat; inconclusive = other ratio curves, or a change in one channel alone; inactive = flat curves in the ratio and both channels; the % refers to the ratio; note: % is set by controls: 0 for no effect and ±100 for the full control effect; nearly all actives have a fitted effect of over 50% in size; tested in ME-180 cells; beta-lactamase reporter
SmPrx2 inh – Schistosoma mansoni Prx2 inhibition; Potency, µM; S. mansoni Prx2 activity coupled to TGR/GSH (TGR is thioredoxin glutathione reductase), NADPH fluorescence loss, qHTS; some inactives read as strong as hits; hit rate 0.07% among 65,000; active means full or partial inhibition curve with a strong effect at the top dose; inconclusive means weaker partial or single-point curve; inactive means no accepted curve; note: series up to 57 µM; many of its hits are not listed in these tables
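qHTS, coupled TGR/Prx2 format; 15 min compound preincubation at RT; reaction started with H2O2 (2.5 mM aliquot); kinetic NADPH fluorescence decrease, ex 365/em 450 nm.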
The depositor's hits bear a star; [ ] = remark or other dose. Potency is the fitted concentration of half-maximal effect. These rows are one share of the data, so the mix of outcomes need not match the whole.

COc1cc2c(cc1NC(=O)CSc1nnnn1-c1ccccc1)oc1ccccc12 was read as Anthrax LT inh 1% and SmPrx2 inh >57.
For CCn1c(O)c(C2=NCCCC2)c2ccccc21 the results were Anthrax LT inh -4%.
Clc1ccccc1-c1nnc2sc(-c3ccncc3)nn12 was read as Anthrax LT inh 8% and SmPrx2 inh >57.
`CCCC(C(=O)NC1CCCC1)N(C(=O)Cn1nnc(-c2ccc(C)o2)n1)c1ccccc1OC` (centres undefined) gave Anthrax LT inh 12% and SmPrx2 inh >57.
For COc1ccccc1NC(=O)N(Cc1cc2cc(OC)c(OC)cc2[nH]c1=O)CC1CCCO1 (centres undefined) the results were Anthrax LT inh 9% and SmPrx2 inh >57.
`CCOC(=O)C1SC2(C(F)(F)F)CC1(O)c1c(C)cc(C)nc1O2` (centres undefined) gave Anthrax LT inh inconclusive and SmPrx2 inh >57.
Screening CN1C(=O)c2ccc(N3CCCC3)cc2C1=O returned Anthrax LT inh inconclusive and SmPrx2 inh >57.
Cn1c(=O)c(-c2cccc(Cl)c2)nc2cncnc21 was read as Anthrax LT inh inconclusive and SmPrx2 inh >57.
`Cn1c(=O)c2cc(S(=O)(=O)NCCC(=O)NC3CCCCCCC3)ccc2n(C)c1=O` gave Anthrax LT inh inconclusive and SmPrx2 inh >57.
For O=C(Cn1c(=O)n(-c2ccccc2)c(=O)c2sccc21)N1CCCC1 the results were Anthrax LT inh 1% and SmPrx2 inh >57.
O=c1[nH]c(CSc2nc3ccccc3o2)nc2c1cnn2-c1ccccc1 was read as Anthrax LT inh -5% and SmPrx2 inh >57.
For Cc1ccccc1-n1nc(C)c2cc(C(=O)NCc3cccnc3)sc21 the results were Anthrax LT inh -2% and SmPrx2 inh >57.
CC[C@@H](C)[C@H](NC(=O)C1CCN(C(=O)[C@@H](NS(=O)(=O)c2ccc(C)cc2)C(C)C)CC1)C(=O)O was read as Anthrax LT inh -4% and SmPrx2 inh >57.
For CN(C)Cc1ccccc1-c1ccc2ncnc(NC3CCNCC3)c2c1 the results were Anthrax LT inh inconclusive and SmPrx2 inh >57.
For COC(=O)N1CCN(S(=O)(=O)c2ccc(F)cc2)CC1 the results were Anthrax LT inh 7% and SmPrx2 inh >57.
Screening c1ccc(-c2csc(Nc3cccnc3)n2)nc1 returned Anthrax LT inh -5% and SmPrx2 inh >57.
Cc1cc(N2CCOCC2)nc2ccc(Cc3ccc4nc(N5CCOCC5)cc(C)c4c3)cc12 was read as Anthrax LT inh -10%[8 µM] and SmPrx2 inh >57.
Screening CCOc1ccc(N2C(=O)CC(NCc3ccc(F)cc3)C2=O)cc1 (centres undefined) returned Anthrax LT inh 17% and SmPrx2 inh >57.
For O=C(Nc1ccccc1Cl)N1CCN(c2ccccn2)CC1 the results were Anthrax LT inh -7%.
Screening Cc1c(C(=O)NCc2cccnc2)sc2nc(-c3ccc(F)cc3)cn12 returned Anthrax LT inh inconclusive and SmPrx2 inh >57.
`COCCNC(=O)CSc1nc2ccccc2c2nc(C)nn12` gave Anthrax LT inh 4% and SmPrx2 inh >57.
Screening CCCCCCC#Cc1cc(OC)c(OC)cc1C(N1CC(C)c2ccccc21)N1CC(C)c2ccccc21 (centres undefined) returned Anthrax LT inh -1%[8 µM].
For COc1cc(C2C(C#N)=C(N)OC3=C2C(=O)CC(C)(C)C3)ccc1OC(=O)N1CCOCC1 (centres undefined) the results were Anthrax LT inh 5% and SmPrx2 inh >57.
CN1CCN(c2ncc3ncc(=O)n(C4CC4)c3n2)CC1 was read as Anthrax LT inh -10% and SmPrx2 inh >57.
`CSc1ccccc1NC(=O)c1c(C)noc1C` gave Anthrax LT inh inconclusive.
For COC(=O)C1=C(C)NC(=O)C1(Nc1ccc(Cl)cn1)C(F)(F)F (centres undefined) the results were Anthrax LT inh -12% and SmPrx2 inh >57.
For N#Cc1cccc(NC(=O)N2CC3(CCN(C(=O)c4cccc(F)c4)CC3)C2)c1 the results were Anthrax LT inh -9% and SmPrx2 inh >57.
For CN1CCN(c2ncc3nc(-c4cc(F)cc(F)c4)c(=O)n(C)c3n2)CC1 the results were Anthrax LT inh inconclusive and SmPrx2 inh >57.
`COc1cc(C(C)=O)ccc1OC(=O)C(C)N1C(=O)c2ccccc2C1=O` (centres undefined) gave Anthrax LT inh 22%.
O=C(c1cnn2c(C(F)F)cc(C3CC3)nc12)N1CCOCC1 was read as Anthrax LT inh 7% and SmPrx2 inh >57.

Three entries picked at random from the list so far, as already listed:
Screening CN1C(=O)c2ccc(N3CCCC3)cc2C1=O returned Anthrax LT inh inconclusive and SmPrx2 inh >57.
CC[C@@H](C)[C@H](NC(=O)C1CCN(C(=O)[C@@H](NS(=O)(=O)c2ccc(C)cc2)C(C)C)CC1)C(=O)O was read as Anthrax LT inh -4% and SmPrx2 inh >57.
O=c1[nH]c(CSc2nc3ccccc3o2)nc2c1cnn2-c1ccccc1 was read as Anthrax LT inh -5% and SmPrx2 inh >57.

Carrying on.
For COc1nc(Nc2nc3ccccc3c(=O)[nH]2)nc2ccc(C)cc12 the results were Anthrax LT inh inconclusive.
Screening Cc1ccc(S(=O)(=O)N(C)CC(=O)N2CCCc3ccccc32)cc1 returned Anthrax LT inh -5% and SmPrx2 inh >57.
Screening C=CCSc1[nH]c(=O)cc(C)c1C(N)=O returned Anthrax LT inh -6% and SmPrx2 inh >57.
`CCCCNC(=O)CSc1nnc(NC(C)=O)s1` gave Anthrax LT inh 17%.
Cc1csc2ncc(C(=O)Nc3cccc(C(F)(F)F)c3)c(=O)n12 was read as Anthrax LT inh -5% and SmPrx2 inh >57.
CCS(=O)(=O)/N=C(\N)c1ccccc1 was read as Anthrax LT inh -15% and SmPrx2 inh >57.
For C=CCn1c(SCC(=O)Nc2ccc(C(=O)OCC)cc2)nnc1-c1cccs1 the results were Anthrax LT inh -10% and SmPrx2 inh >57.
Screening C/C(N)=C(/C#N)C(=O)CSc1nnc(Nc2cccc(C)c2C)s1 returned Anthrax LT inh inconclusive and SmPrx2 inh >57.
Screening CC1COC2C(O1)N(S(C)(=O)=O)CCN2S(C)(=O)=O (centres undefined) returned Anthrax LT inh -1% and SmPrx2 inh >57.
For Cn1c2ccccc2c2ncn(Cc3ccco3)c(=O)c21 the results were Anthrax LT inh -5% and SmPrx2 inh >57.
`CN(C)C(=O)CSc1nnc2sc3ccccc3n12` gave Anthrax LT inh 5% and SmPrx2 inh >57.
O=C(Nc1ccc(S(=O)(=O)NC2CCCCC2)cc1)c1ccc(Br)o1 was read as Anthrax LT inh -16% and SmPrx2 inh >57.
For Cc1nn(-c2cc(N3CCOCC3)ccc2N)c(=O)c2ccccc12 the results were SmPrx2 inh >57.
COC(=O)c1ccc(Cn2cnc3c(cnn3-c3ccc(Cl)cc3)c2=O)o1 was read as Anthrax LT inh 10% and SmPrx2 inh >57.
`Cc1ccccc1CS(=O)(=O)CCC(=O)NCCN1CCN(c2cccc(Cl)c2)CC1` gave Anthrax LT inh 7% and SmPrx2 inh >57.
`CCOc1ccc(C(c2nnnn2Cc2ccccc2)N2CCN(C(=O)c3ccco3)CC2)cc1` (centres undefined) gave Anthrax LT inh -15% and SmPrx2 inh >57.
Screening COc1ccc(/C=C/C(=O)c2ccccc2O)cc1 returned Anthrax LT inh -22%[8 µM].
For CCOC(=O)N(c1ccccc1)P1(=S)OCCO1 the results were Anthrax LT inh -6% and SmPrx2 inh >57.
For c1ccc(OCCOc2ncnc3ccccc23)cc1 the results were Anthrax LT inh inconclusive and SmPrx2 inh >57.
O=C(NCCSCc1ccccc1)c1cc(S(=O)(=O)N2CCOCC2)ccc1F was read as Anthrax LT inh -18% and SmPrx2 inh >57.
For COc1ccc(C(C)(C)C)cc1NC(=O)C1CC=CCC1C(=O)O (centres undefined) the results were Anthrax LT inh -5%.
For O=S(=O)(Nc1ccc(N2CCCCC2)cc1)c1cccs1 the results were Anthrax LT inh -12% and SmPrx2 inh >57.
`CCOC(=O)N1CCN(C(=O)Cc2ccc(C)cc2)CC1` gave Anthrax LT inh 3% and SmPrx2 inh >57.
Screening CC1(C)C(=O)NCCN1C(=O)CSc1nccc(-c2ccc(Br)cc2)n1 returned Anthrax LT inh 8% and SmPrx2 inh >57.
CCOC(=O)CSc1nnc(NC(=O)c2cccc(S(=O)(=O)N3CCCCC3)c2)s1 was read as Anthrax LT inh 0% and SmPrx2 inh >57.
Screening N#CCc1nc(CSc2nc3ccccc3s2)cs1 returned Anthrax LT inh -21% and SmPrx2 inh >57.
Cc1ccc(C2/C(=C(\O)c3c(C)nc4ccccn34)C(=O)C(=O)N2CCCN2CCOCC2)o1 (centres undefined) was read as SmPrx2 inh >57.
Screening CC(C)C[C@H](NC(=O)OC(C)(C)C)c1nnc(SCc2cccc(F)c2)o1 returned Anthrax LT inh -20% and SmPrx2 inh >57.
`Cc1cccc(CNc2ncncc2-c2ccccc2C(F)(F)F)c1` gave Anthrax LT inh 3% and SmPrx2 inh >57.
`CCCn1c(SCC(=O)Nc2c(C)cccc2C)nnc1C(C)C` gave Anthrax LT inh 10% and SmPrx2 inh >57.
CCOC(=O)Cn1c(=O)oc2cc(S(=O)(=O)N3CCCc4ccccc43)ccc21 was read as Anthrax LT inh inconclusive and SmPrx2 inh >57.
`CC(=O)c1c(C)[nH]c(C(=O)N2CCc3ccccc32)c1C` gave Anthrax LT inh 2% and SmPrx2 inh >57.
Screening CN1CCN(c2ccc(C(=O)c3ccc(F)cc3)cc2)CC1 returned Anthrax LT inh 0% and SmPrx2 inh >57.
`O=S(=O)(NCCOC12CC3CC(CC(C3)C1)C2)c1cccc2nsnc12` gave Anthrax LT inh 3% and SmPrx2 inh >57.
For COCCN1C(=O)c2ccc(C(=O)Nc3nccs3)cc2C1=O the results were Anthrax LT inh -1% and SmPrx2 inh >57.
COc1ccc(C2/C(=C(\O)c3ccc(OC)c(Cl)c3)C(=O)C(=O)N2CCN(C)C)cc1 (centres undefined) was read as Anthrax LT inh -12% and SmPrx2 inh >57.
Screening OC(c1ccccn1)c1c[nH]c2ccccc12 (centres undefined) returned Anthrax LT inh -3%.
For NC(=O)C[C@H](NC(=O)Cc1ccc(O)cc1O)C(=O)O the results were Anthrax LT inh -4% and SmPrx2 inh >57.
For CCCCNC(=O)C(c1ccc(OCC(=O)OC)c(C(=O)OC)c1)N(CCOC)C(=O)CCCCCN1C(=O)NC(c2ccc(-c3ccccc3)cc2)C(C(=O)OCc2ccccc2)=C1C (centres undefined) the results were Anthrax LT inh -3%.
COC(=O)/C=c1/sc2n(c1=O)CCN=2 was read as Anthrax LT inh 25% and SmPrx2 inh >57.
`Cc1cc(C(=O)CSc2n[nH]c(N)n2)c(C)n1-c1cccc(F)c1` gave Anthrax LT inh inconclusive and SmPrx2 inh >57.
`Cc1cc(C)nc(/N=C2\NC(=O)CC(C(=O)O)N2c2ccc(Cl)cc2)n1` (centres undefined) gave Anthrax LT inh -1% and SmPrx2 inh >57.
`NC(N)=N[C@H](CC(=O)O)c1ccccc1` gave Anthrax LT inh -10%[8 µM] and SmPrx2 inh >57.
Screening COc1cc2[nH]c(=S)n(C3CCCC3)c(=O)c2cc1OC returned Anthrax LT inh -14% and SmPrx2 inh >57.
CC1(C)N=C(N)N=C(N)N1c1cccc(C(=O)Nc2ccc(S(=O)(=O)F)cc2)c1 was read as Anthrax LT inh inconclusive and SmPrx2 inh >57.
`O=C1O[C@H](CN2CCOCC2)CN1/N=C\c1ccc([N+](=O)[O-])o1` gave Anthrax LT inh 4%[3.58 µM] and SmPrx2 inh >57.
`CN1CCN(c2ccc(C(N)=O)cc2N)CC1` gave Anthrax LT inh -7% and SmPrx2 inh >57.
Cc1ccc(C)c(N2CCN(S(=O)(=O)c3c(C)noc3/C=C/N(C)C)CC2)c1 was read as Anthrax LT inh -4% and SmPrx2 inh >57.
Cc1nn(-c2ccc3nnc(Br)n3n2)c(C)c1Br was read as Anthrax LT inh -5% and SmPrx2 inh >57.
CC1=C2[C@@H]([C@H](C)CC[C@H]2/C=C(\C)C(=O)O)[C@H](O)C1 was read as Anthrax LT inh -16%.
`COc1ccc(NC(=O)CN2CCC3(O)CCCCC3C2c2cc(OC)ccc2OC)cc1` (centres undefined) gave Anthrax LT inh inconclusive and SmPrx2 inh >57.
Screening Cn1cccc1C(=O)N1CCC2(CC1)CCN(c1ccncc1)CC2 returned Anthrax LT inh -14% and SmPrx2 inh >57.

Arranged by length of the SMILES (largest number first): 6 of the compounds above
CC1=C2[C@@H]([C@H](C)CC[C@H]2/C=C(\C)C(=O)O)[C@H](O)C1 was read as Anthrax LT inh -16%.
Cc1ccc(C)c(N2CCN(S(=O)(=O)c3c(C)noc3/C=C/N(C)C)CC2)c1 was read as Anthrax LT inh -4% and SmPrx2 inh >57.
`Cc1cc(C)nc(/N=C2\NC(=O)CC(C(=O)O)N2c2ccc(Cl)cc2)n1` (centres undefined) gave Anthrax LT inh -1% and SmPrx2 inh >57.
Screening Cn1cccc1C(=O)N1CCC2(CC1)CCN(c1ccncc1)CC2 returned Anthrax LT inh -14% and SmPrx2 inh >57.
`NC(N)=N[C@H](CC(=O)O)c1ccccc1` gave Anthrax LT inh -10%[8 µM] and SmPrx2 inh >57.
`CN1CCN(c2ccc(C(N)=O)cc2N)CC1` gave Anthrax LT inh -7% and SmPrx2 inh >57.

Screening results deposited in PubChem by National Center for Advancing Translational Sciences (NCATS).
